# VDR inhibitor: blocks the human vitamin D receptor; 0.93% of 400,000 active; Potency, µM, for the others: max response, negative = inhibition, most hits filed as inhibitors; VDR-SRC2-3 peptide fluorescence polarization, 2 h; active = well fitted inhibition curve with a large enough effect; inconclusive = small, poorly fitted or top-dose-only effect, or another doubt; inactive = no such curve, though single readings can be large or run the other way; also: series mostly up to about 120 µM
# Target sequence (P11473 whole entry, looked up): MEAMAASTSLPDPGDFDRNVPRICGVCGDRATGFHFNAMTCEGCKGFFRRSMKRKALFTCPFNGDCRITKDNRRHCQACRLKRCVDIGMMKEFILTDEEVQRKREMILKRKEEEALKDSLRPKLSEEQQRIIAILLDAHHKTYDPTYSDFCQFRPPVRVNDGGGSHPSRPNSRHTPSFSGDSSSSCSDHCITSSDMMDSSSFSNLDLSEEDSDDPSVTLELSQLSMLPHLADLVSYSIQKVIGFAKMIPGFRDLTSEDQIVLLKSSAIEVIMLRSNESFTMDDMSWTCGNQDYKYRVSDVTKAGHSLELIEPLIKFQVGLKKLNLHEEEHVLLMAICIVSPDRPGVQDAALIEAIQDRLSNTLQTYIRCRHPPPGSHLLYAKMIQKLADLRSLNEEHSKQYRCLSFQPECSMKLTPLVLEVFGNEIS
#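 Fluorescence polarization assay measuring small-molecule disruption of VDR binding to the coregulator peptide SRC2-3. Compounds were pin-transferred (23 nl) into the reagent mix and incubated 2 h at room temperature before reading.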
# * hit, by the source's call; ? = inconclusive; [ ] = dose if it differs, or a comment. % is scaled to controls: 0 for no effect and ±100 for the full control effect; potency is read from the fitted curve at half-maximal effect. These rows are one share of the data; count on the stated rates, not on these rows.
no. | compound | VDR inhibitor
1 | Cc1ccc(CN(C)C(=O)c2ccc3c(c2)NC(=O)CS3)o1 | -8%
2 | Cc1[nH]nc(C(F)(F)F)c1N=NN1CCOCC1 | ?
3 | COc1ccc(/C=N/NC(=O)CCn2cnc(-c3ccccc3)c2-c2ccccc2)cc1 | -1%
4 | COc1ccc(C)cc1NC(=O)NC1CCCCCCC1 | -7%
5 | O=C(COc1ccc(S(=O)(=O)N2CCOCC2)cc1Cl)N1CCCC1 | 8%
6 | COCCn1c(=O)c(-c2cccc(C#N)c2)nc2cnc(Oc3ccc(OC)cc3)nc21 | -20%
7 | CC1CCCN(C(=O)c2ccc3c(c2)C(=O)N(CCC2=CCCCC2)C3=O)C1 (stereo not drawn) | -7%
8 | CN(CC(=O)Nc1ccccc1Cl)C(=O)CSc1nncn1C | -4%
9 | COc1cccc(S(=O)(=O)Nc2ccc(C(=O)N3CCOCC3)cc2)c1 | -4%
10 | COc1ccc(C2=CSC3=C(C(=O)c4cccc(S(=O)(=O)N(C)C)c4)CCN23)cc1 | -5%
11 | COc1cccc(N/C(SCc2ccccc2F)=C(/C#N)C(=O)NCc2cccs2)c1 | -15%
12 | CCCOc1ccc(-c2nc(N3CCC(C)CC3)c3ccccc3n2)cc1 | -8%

# New compounds follow:
no. | compound | VDR inhibitor
13 | CCOC(=O)N1CCC(NC(=O)CSCc2nc(-c3ccc(OC)cc3)oc2C)CC1 | -25%
14 | Cc1c(NS(=O)(=O)c2ccc3c(c2)c(=O)n(C)c(=O)n3C)c(=O)n(-c2ccccc2)n1C | -3%
15 | COc1ccc(C(C)=O)cc1CC(=O)Nc1ccccc1-c1ccccc1 | -2%
16 | CN(C(=O)c1ccc(NC(=O)Cc2ccc(NC(=O)C3CCCN(C(=O)C4CC4)C3)cc2)cc1)C1CCCC1 (stereo not drawn) | -7%
17 | O=C(Nc1ccncc1)Nc1ccccn1 | 4%
18 | COCCn1c(=O)c(-c2cn(C)c3ccccc23)nc2cncnc21 | -4%
19 | O=C(Nc1ccc2ncccc2c1)c1ccccc1Br | -12%
20 | CC(=O)c1ccc(NC(=O)C[n+]2cccc(C)c2)cc1 | 0%
21 | Cc1occc1C(=O)O/N=C(\N)c1ccc(Cl)cc1 | 11%
22 | COc1ccc(Nc2ncnc3c2cnn3Cc2ccc(C)cc2)cc1 | -5%
23 | COc1ccc(S(=O)(=O)N(Cc2ccccc2)c2ccccc2C(=O)N2CCOCC2)cc1 | -13%
24 | O=C(NC(Cc1ccc(F)cc1)C(=O)O)c1ccccc1 (stereo not drawn) | -8%

# An excerpt from above in order of length of the SMILES, largest number first:
no. | compound | VDR inhibitor
16 | CN(C(=O)c1ccc(NC(=O)Cc2ccc(NC(=O)C3CCCN(C(=O)C4CC4)C3)cc2)cc1)C1CCCC1 (stereo not drawn) | -7%
14 | Cc1c(NS(=O)(=O)c2ccc3c(c2)c(=O)n(C)c(=O)n3C)c(=O)n(-c2ccccc2)n1C | -3%
10 | COc1ccc(C2=CSC3=C(C(=O)c4cccc(S(=O)(=O)N(C)C)c4)CCN23)cc1 | -5%
23 | COc1ccc(S(=O)(=O)N(Cc2ccccc2)c2ccccc2C(=O)N2CCOCC2)cc1 | -13%
6 | COCCn1c(=O)c(-c2cccc(C#N)c2)nc2cnc(Oc3ccc(OC)cc3)nc21 | -20%
3 | COc1ccc(/C=N/NC(=O)CCn2cnc(-c3ccccc3)c2-c2ccccc2)cc1 | -1%
11 | COc1cccc(N/C(SCc2ccccc2F)=C(/C#N)C(=O)NCc2cccs2)c1 | -15%
9 | COc1cccc(S(=O)(=O)Nc2ccc(C(=O)N3CCOCC3)cc2)c1 | -4%
5 | O=C(COc1ccc(S(=O)(=O)N2CCOCC2)cc1Cl)N1CCCC1 | 8%
15 | COc1ccc(C(C)=O)cc1CC(=O)Nc1ccccc1-c1ccccc1 | -2%
18 | COCCn1c(=O)c(-c2cn(C)c3ccccc23)nc2cncnc21 | -4%
1 | Cc1ccc(CN(C)C(=O)c2ccc3c(c2)NC(=O)CS3)o1 | -8%
22 | COc1ccc(Nc2ncnc3c2cnn3Cc2ccc(C)cc2)cc1 | -5%
20 | CC(=O)c1ccc(NC(=O)C[n+]2cccc(C)c2)cc1 | 0%
8 | CN(CC(=O)Nc1ccccc1Cl)C(=O)CSc1nncn1C | -4%
24 | O=C(NC(Cc1ccc(F)cc1)C(=O)O)c1ccccc1 (stereo not drawn) | -8%
21 | Cc1occc1C(=O)O/N=C(\N)c1ccc(Cl)cc1 | 11%
2 | Cc1[nH]nc(C(F)(F)F)c1N=NN1CCOCC1 | ?
19 | O=C(Nc1ccc2ncccc2c1)c1ccccc1Br | -12%
17 | O=C(Nc1ccncc1)Nc1ccccn1 | 4%

# The listing continues:
no. | compound | VDR inhibitor
25 | Cc1cc(C)cc(C(=O)N2CC(C)SC2=Nc2cccc(S(=O)(=O)N(C)C)c2)c1 (stereo not drawn) | 1%
26 | COc1cccc(NC(=O)c2cccnc2)c1 | 3%
27 | CC(C)CNc1nc(S(=O)(=O)c2ccccc2)c(Cl)s1 | -1%
28 | CCn1c(SCc2nc3ccccc3c(=O)[nH]2)nnc1C(C)NC(=O)c1ccccc1F (stereo not drawn) | -12%
29 | O=c1c2[nH]c3ccc(F)cc3c2ncn1CCCn1ccnc1 | 9%
30 | O=S(=O)(Nc1ccc(N2CCCCC2)cc1)c1ccc(F)cc1 | 6%
31 | Cc1c(CCC(=O)NCCC(=O)O)c(=O)oc2cc3occ(-c4ccccc4)c3cc12 | -18%
32 | CC(C)C[C@H](NC(=O)c1nc[nH]c1C(=O)N[C@@H](CC(C)C)C(=O)OC(C)(C)C)C(=O)OCc1ccccc1 | -22%
33 | COC(=O)c1cccc(S(=O)(=O)N2CCC(n3nnc4cc(F)ccc43)CC2)c1 | -21%
34 | Cc1ccc(NC(=O)[C@@H]2CCCN2S(=O)(=O)c2ccccc2F)cc1 | 9%
35 | CCc1cnccc1CCC(=O)Nc1ccccc1C | -12%
36 | COc1ccc(NC(=O)Cc2ccccc2F)cn1 | 1%

# New compounds follow:
no. | compound | VDR inhibitor
37 | COc1cc(C=NCC2OCCc3ccccc32)cc(OC)c1 (stereo not drawn) | 0%
38 | COc1nnc(-c2ccc(N3CCOCC3)c(NC(=O)c3ccco3)c2)c2ccccc12 | -8%
39 | Cc1cc(Cl)ccc1OCC(=O)N/N=C1\CCCc2ccccc21 | -6%
40 | CCOC(=O)N1CCC(C(=O)NNC(=O)c2ccc(Cl)cc2Cl)CC1 | 22%
41 | COc1cc(NC(=O)C2CC(=O)N(CCc3ccccc3)C2)cc(OC)c1 (stereo not drawn) | 45%[activator]
42 | CCc1ccc(CC)c(S(=O)(=O)Nc2ccc(O)c(C(=O)O)c2)c1 | -21%
43 | O=C1S/C(=C\C=C\c2ccco2)C(=O)N1c1ccc(O)cc1 | -19%
44 | O=C(CSc1nnc(NC(=O)c2ccco2)s1)Nc1ccc(F)cc1F | 6%
45 | CC(c1ccccc1)C1CC(=O)N(c2ccc([N+](=O)[O-])cc2)C1=O (stereo not drawn) | -1%
46 | COc1cccc(CN2CCN(Cc3nc(C(C)C)cs3)CC2CCO)c1 (stereo not drawn) | 1%
47 | CSc1nc(-c2ccco2)nn1C(=O)c1cccs1 | -13%
48 | CC(CCc1ccccc1)N(C)CC(O)c1cccc([N+](=O)[O-])c1 (stereo not drawn) | -1%

# Other results follow:
no. | compound | VDR inhibitor
49 | CC(=O)Nc1ccccc1C | -3%
50 | CCCc1nc2ccc(NC(=O)c3cccs3)cc2c(=O)n1Cc1ccccc1Cl | ?
51 | Oc1[nH]c2ccccc2c1N=Nc1c(F)c(F)c(C(F)(F)F)c(F)c1F | -12%
52 | CC(=O)N1CCN(CCN=CC2=C(O)CC(c3ccc(Cl)cc3)CC2=O)CC1 (stereo not drawn) | -14%
53 | Cc1ccc(C2C3=C(CC(C)(C)CC3=O)Nc3onc(C)c32)cc1 (stereo not drawn) | -7%
54 | CCc1ccc(Nc2cc(C(=O)NCCCN3CCOCC3)c3ccccc3n2)cc1 | 5%
55 | O=C(NC1CCCC1)C(c1cccnc1)N(C(=O)c1csnn1)c1ccccc1Cl (stereo not drawn) | -18%
56 | O=[N+]([O-])c1cccc(S(=O)(=O)N2CCCCC2)c1 | -8%
57 | O=C(CSCC(=O)NN=Cc1ccccc1)NN=Cc1ccccc1 | 13%
58 | CCc1nc2cccnc2n1-c1ccc(CC(=O)NC(C)CC)cc1 (stereo not drawn) | 6%
59 | COCCNC(=O)c1ccc2c3n(nc2c1)-c1ccc(C)cc1CO3 | -3%
60 | Cc1ccc(NC(=O)c2nc(S(C)(=O)=O)ncc2N(Cc2ccco2)Cc2cccs2)c(C)c1 | -18%

# Carrying on:
no. | compound | VDR inhibitor
61 | NS(=O)(=O)c1nn2cc(-c3ccccc3)nc2s1 | -18%
62 | COc1ccc(N(C(=O)c2snc(C(N)=O)c2N)C(C(=O)NC2CCCC2)c2ccco2)cc1OC (stereo not drawn) | 2%
63 | CCN(CCCCCCN)c1ccc2c(=O)[nH][nH]c(=O)c2c1 | -1%
64 | O=C(NCCNc1ccc([N+](=O)[O-])cc1)c1ccccc1F | -7%
65 | CC1CN(C(=O)CCC(=O)Nc2cc(F)ccc2F)c2ccccc2S1 (stereo not drawn) | -6%
66 | CCOc1ccc(CCNC(=O)CCNC(=O)c2ccc(Br)cc2)cc1OCC | -7%
67 | O=C(CCC(=O)N1CCCC1)Nc1nnc(C(F)(F)F)s1 | 13%
68 | CCOC(=O)N1CCN(C(=O)CSc2nc3c(cnn3-c3ccc(C)cc3)c(=O)[nH]2)CC1 | -12%
69 | O=c1c2ccccc2nnn1Cc1ccccn1 | -12%
70 | CCOC(=O)/C(C#N)=C/c1c(N2CCN(c3ccccc3)CC2)nc2c(C)cccn2c1=O | 76%[activator]
71 | Cc1cc(C)cc(C(=O)Nc2c3c(nn2C(C)(C)C)CS(=O)(=O)C3)c1 | 11%
72 | O=C(COC(=O)CNC(=O)c1ccc(-c2ccccc2)cc1)NCc1ccco1 | -21%

# More results.
no. | compound | VDR inhibitor
73 | CC(C)c1cccc(OCCCCN(C)C)c1 | 0%
74 | Cc1ccc2oc(=O)c3cnn(CC(=O)N4CCCCC4C)c3c2c1 (stereo not drawn) | 0%
75 | CCOC(=O)C1CCCN(C(=O)c2cc(Nc3ccc(OC)c(OC)c3)nc3ccccc23)C1 (stereo not drawn) | -3%
76 | Cc1ccc(-n2ncc(C(=O)NCCCN3CCN(c4cccc(Cl)c4)CC3)c2-n2cccc2)cc1 | 6%
77 | Cc1cc(=O)n2nc(N3CCCC(C(=O)NCCc4ccccc4)C3)sc2n1 (stereo not drawn) | -8%
78 | COc1ccccc1C(CNC(=O)c1cccc(NS(=O)(=O)c2ccc(C)c(F)c2)c1)N1CCCC1 (stereo not drawn) | 2%

# In the list so far, these have a cyano group:
no. | compound | VDR inhibitor
6 | COCCn1c(=O)c(-c2cccc(C#N)c2)nc2cnc(Oc3ccc(OC)cc3)nc21 | -20%
11 | COc1cccc(N/C(SCc2ccccc2F)=C(/C#N)C(=O)NCc2cccs2)c1 | -15%
70 | CCOC(=O)/C(C#N)=C/c1c(N2CCN(c3ccccc3)CC2)nc2c(C)cccn2c1=O | 76%[activator]

# Screens (PubChem BioAssay)
